D2 potentiator: Beta-Arrestin HTS for Positive Allosteric Modulators of the Human D2 Dopamine Receptor: Potentiators | actives 0.23% (n = 360,000) | AID 624464, 2012 | potentiation, % (test concentration not listed) | D(2) dopamine receptor (Homo sapiens), P14416 | DiscoveRx D2 beta-arrestin cells, luminescence, 90 min; 100% = 57 uM dopamine signal; active = potentiation of 50% or more; inconclusive = 30% to 50%; inactive = 30% or less;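 note: compound concentration not given in the record; tested on top of an EC20 dose of dopamine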
Target sequence (P14416 whole entry, looked up): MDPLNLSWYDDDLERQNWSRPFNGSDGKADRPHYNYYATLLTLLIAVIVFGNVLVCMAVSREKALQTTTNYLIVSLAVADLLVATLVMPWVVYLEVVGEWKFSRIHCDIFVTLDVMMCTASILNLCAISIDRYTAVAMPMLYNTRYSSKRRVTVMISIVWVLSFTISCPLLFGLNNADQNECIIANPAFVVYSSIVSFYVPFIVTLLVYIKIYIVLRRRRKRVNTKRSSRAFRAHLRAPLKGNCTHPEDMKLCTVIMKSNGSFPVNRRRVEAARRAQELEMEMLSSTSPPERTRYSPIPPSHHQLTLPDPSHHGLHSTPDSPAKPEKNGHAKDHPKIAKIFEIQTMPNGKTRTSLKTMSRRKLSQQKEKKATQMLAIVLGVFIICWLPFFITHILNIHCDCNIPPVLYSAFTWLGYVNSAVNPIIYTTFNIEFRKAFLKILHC
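PathHunter D2 cells, attached overnight at 37 deg C, received compound in DMSO plus dopamine at EC20 (50 nM final) for 90 min at 37 deg C. Beta-arrestin recruitment was read as luminescence after 1 h with detection reagent at ambient temperature.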
TRPML1 blocker: qHTS for Inhibitors of the Human Mucolipin Transient Receptor Potential 1 (TRPML1); Mucolipin-1 (Homo sapiens), Q9GZU1; TRPML1-inducible cells, Ca2+ dye fluorescence, FDSS; active compounds read low; inhibition of EC80 agonist-evoked calcium signal; activity change, negative = inhibition, % (concentration not given with the values); actives 0.02% (n = 390,000); AID 624415, 2012; in the data active means activity change below about -50%; inconclusive means about -30% to -50%; inactive means above about -30%;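 note: stimulus is agonist 54-4 at its EC80 concentration; % is set by controls: 0 for no effect and ±100 for the full control effect; the text of the record puts the active cut at -80%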
Target sequence (Q9GZU1 whole entry, looked up): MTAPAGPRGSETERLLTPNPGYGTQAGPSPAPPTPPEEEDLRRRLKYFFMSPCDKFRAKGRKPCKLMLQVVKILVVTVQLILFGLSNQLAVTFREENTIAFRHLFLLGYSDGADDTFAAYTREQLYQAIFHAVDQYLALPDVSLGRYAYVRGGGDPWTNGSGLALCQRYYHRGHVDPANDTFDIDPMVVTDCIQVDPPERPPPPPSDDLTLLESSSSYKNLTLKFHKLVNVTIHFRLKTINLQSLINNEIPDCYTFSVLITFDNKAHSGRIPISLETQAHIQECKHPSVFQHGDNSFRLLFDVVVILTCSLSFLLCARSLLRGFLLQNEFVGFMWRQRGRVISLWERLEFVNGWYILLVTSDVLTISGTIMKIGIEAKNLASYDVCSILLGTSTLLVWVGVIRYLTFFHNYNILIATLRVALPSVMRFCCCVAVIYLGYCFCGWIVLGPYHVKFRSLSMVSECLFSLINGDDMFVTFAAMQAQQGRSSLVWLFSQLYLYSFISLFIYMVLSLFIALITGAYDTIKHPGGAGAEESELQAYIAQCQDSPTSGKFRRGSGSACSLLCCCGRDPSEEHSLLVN
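Calcium fluorescence in TRPML1-DL cells induced overnight with Tet: a 110 s read after compound pin addition, then a 110 s antagonist read after challenge with 54-4 at 4 uM final (EC80).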
TRPV1 potentiator: HTS Assay for Compounds that Act as Potentiators of the Vanilloid Receptor 1. Transient receptor potential cation channel subfamily V member 1 (Homo sapiens), Q8NER1. TRPV1-expressing cells, Fluo-8 calcium influx, capsaicin EC20 potentiation; host cell line not named in the record; control for the full effect not named in the record. potentiation, % at 8.33 µM. actives 0.02% (n = 320,000); active means potentiation above 80%; inconclusive means 30% to 80%; inactive means below 30%; note: 0% is about no effect
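TRPV1-expressing cells were cultured overnight at 35.5C and loaded with Fluo-8 calcium dye for 40 to 90 min at room temperature. After a 10 s baseline, compound was added and calcium influx was read kinetically for 3 min (ex 480/em 520 nm).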
CtBP-E1A blk: qHTS Assay for Inhibitors of the CtBP/E1A Interaction; actives 0.49% (n = 340,000); AlphaScreen GST-E1A/His-CtBP binding, 1536-well; active compounds read low; control for the full effect not named in the record; activity change, % (no concentration beside the values); AID 651724, 2012; in the data active means activity change below about -65%; inconclusive means about -30% to -65%; inactive means above about -30%; note: % is set by controls: 0 for no effect and ±100 for the full control effect
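In 5 uL wells, 23 nL compound meets equimolar GST-E1A and His-CtBP (5X stock 125 nM each) for 2 h, 37 °C. Beads (5X, 50 ug/mL) then 1 h, 37 °C, dark.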
Six1-Eya2 blk: qHTS Assay for Inhibitors of the Six1/Eya2 Interaction; AlphaScreen GST-Six1/His-Eya2 binding, biochemical; active compounds read low; control for the full effect not named in the record; Homeobox protein SIX1 (Homo sapiens) + Protein phosphatase EYA2 (Homo sapiens), …; activity change, % (concentration not given with the values); AID 651725, 2012; actives 0.56% (n = 360,000); in the data active = activity change below about -65%; inconclusive = about -30% to -65%; inactive = above about -30%; note: % is set by controls: 0 for no effect and ±100 for the full control effect
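AlphaScreen luminescence read after one hour at 37 °C in darkness. Pin-transferred compounds met GST-Six1 and His-Eya2 protein (5X stock 250 nM/500 nM) plus glutathione donor and Ni-chelate acceptor beads (5X, 50 ug/mL).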
TRPML1 ag: qHTS for Agonists of the Human Mucolipin Transient Receptor Potential 1 (TRPML1) | actives 0.12% (n = 410,000) | activation, % (test concentration not listed) | Mucolipin-1 (Homo sapiens), Q9GZU1 | TRPML1-expressing cells, Ca2+ dye fluorescence, FDSS; host cell line not named in the record; reference of the full effect not given here; in the data active = activation above about 50%; inconclusive = about 30% to 50%; inactive = below about 30%; note: 0% is about no effect; the text of the record puts the active cut at 80%
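Tet-induced TRPML1-DL cells, 1,500 per well, cultured overnight, were loaded with a no-wash Ca2+ dye for 45–90 min. Calcium fluorescence was recorded on the FDSS for 110 s after compound addition, before the EC80 agonist (4 uM 54-4) was added.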
* hit, by the source's call; ? = inconclusive; . = not tested or not shown; & = joins results of further samples. The order is random, and some 0.95% of all compounds hit somewhere here.

nr	SMILES	D2 potentiator	TRPML1 blocker	TRPV1 potentiator	CtBP-E1A blk	Six1-Eya2 blk	TRPML1 ag
1	CCCC(=O)Nc1sc2c(c1C(=O)OC)C(C(=O)OC)CC2 (centres undefined)	20	2	-10	4	4	-0.9
2	CCCC(=O)N1CCN(c2nnc(-c3ccc(C)cc3)c3ccccc23)CC1	-9	0	-2	.	1	1.8
3	CC1(c2ccc(Cl)cc2)NC(=O)N(CC(=O)NC(=O)NCc2ccco2)C1=O (centres undefined)	-9	-4	8	-9	-3	-0.1
4	O=C(C1CCC(CNS(=O)(=O)c2cccc3nsnc23)CC1)N1CC=C(c2ccccc2)CC1 (centres undefined)	11	30	2	-17	-22	2.1
5	CC1(Cc2c(Cl)cccc2Cl)C(=O)Nc2cc(-c3ccccc3Cl)ccc21 (centres undefined)	-18	28	.	-6	-6	-0.9
6	CC(C)=NNc1nc(-c2ccc([N+](=O)[O-])cc2)cs1	0	12	4	-1	-4	0.2
7	CCCN1C2CCCC1CC(NC(=O)c1ccc(OC)cc1)C2 (centres undefined)	-3	10	5	-8	4	0.6
8	CCOc1ccc2c(c1)C(NC(C)=O)C(=O)N2CCN1CCOCC1 (centres undefined)	-10	-17	-10	.	-15	1.5
9	COc1cc(OC)c2c(-c3ccccc3)cc(=O)oc2c1C(CCN1CCCCC1)c1ccc(N(C)C)cc1 (centres undefined)	-19	-10&-17	-20	?	?	-0.1&-0.2
10	CCOc1ccc(Br)cc1S(=O)(=O)Nc1cccnc1	-12	60	-18	-5	3	-0.2
11	C#Cc1ccc([C@H]2C=C(C(=O)N3CCN(Cc4ccc5c(c4)OCO5)CC3)O[C@@H](OCC)[C@@H]2CCCO)cc1	-5	-10	-2	-3	-17	-0.4
12	OC[C@H]1O[C@@H](c2nc(-c3nc(-c4ccc(F)cc4)no3)cs2)[C@H](O)[C@@H](O)[C@H]1O	-7	.	.	7	0	-0.1
13	Fc1ccc(C2c3[nH]c4ccccc4c3CCN2Cc2cccn2-c2ncccn2)cc1 (centres undefined)	-1	4	-9	-8	-27	0.6
14	Cc1ccc(OCCCn2cc(C#N)c3ccccc32)cc1	-10	18	10	40	20	1.1
15	Cc1ccc(S(=O)(=O)N(C)c2c(C)ccc(S(=O)(=O)Nc3ccncc3)c2C)cc1	3	-10	3	-13	2	1.1
16	Cc1cc(Br)cc(Cl)c1OC(=O)c1cnccn1	-2	0	10	-11	-8	0.2
17	CCN1CCN(CCCNC(=O)c2ccc3c(c2)N(Cc2ccc(C)cc2)CCS3)CC1	-20	-5	12	-22	-18	-0.5
18	CCOc1ccc(NS(=O)(=O)c2cc(NC(=O)CCNC(=O)c3ccco3)ccc2OC)cc1	-5	-20	.	-4	-1	-0.2
19	COc1ccc(OC)c2c(C)cc(N3CCCN(C)CC3)nc12	-20	4	4	-29	?	1.0
20	Cc1cc(C)c(NC(=O)CSc2nncn2-c2cccnc2)c(C)c1	-7	4	-8	.	10	-0.4
21	CCOc1ccc(-c2n[nH]c(C)c2-c2ccccc2OC)c(O)c1	-20	-2	5	-1	-6	0.4
22	O=C(O)C1CCCCC1C(=O)NCCC(c1ccccc1)c1ccccc1 (centres undefined)	-22	-9	-3	6	0	-0.1
23	Cc1cc(C)n(C(=O)/C(C#N)=N/Nc2cc(Cl)cc(Cl)c2)n1	6	38	3	.	-4	4.6
24	Cc1ccccc1NC(=O)c1ccccc1NC(=O)c1ccccc1F	-6	-28&-19	23	6	2	1.3&1.4
25	CC(C)(C)c1ccc(-c2nnc(SCCN3C(=O)c4ccccc4C3=O)o2)cc1	-18	-9	?	23	5	0.8

Compound profiles, as listed above.
CC(C)(C)c1ccc(-c2nnc(SCCN3C(=O)c4ccccc4C3=O)o2)cc1 across the screens: D2 potentiator: -18; TRPML1 blocker: -9; TRPV1 potentiator: ?; CtBP-E1A blk: 23; Six1-Eya2 blk: 5; TRPML1 ag: 0.8
O=C(C1CCC(CNS(=O)(=O)c2cccc3nsnc23)CC1)N1CC=C(c2ccccc2)CC1 (centres undefined) across the screens: D2 potentiator: 11; TRPML1 blocker: 30; TRPV1 potentiator: 2; CtBP-E1A blk: -17; Six1-Eya2 blk: -22; TRPML1 ag: 2.1
CC(C)=NNc1nc(-c2ccc([N+](=O)[O-])cc2)cs1 across the screens: D2 potentiator: 0; TRPML1 blocker: 12; TRPV1 potentiator: 4; CtBP-E1A blk: -1; Six1-Eya2 blk: -4; TRPML1 ag: 0.2

The list goes on:
nr	SMILES	D2 potentiator	TRPML1 blocker	TRPV1 potentiator	CtBP-E1A blk	Six1-Eya2 blk	TRPML1 ag
26	C=CCOc1cccc(C(=O)N2CCCC(CCC(=O)NCc3ccccc3F)C2)c1 (centres undefined)	-9	4	-11	0	2	0.2
27	C=CCN(CC=C)C(=O)c1cc2ccccc2c(=O)o1	-3	11	-9	0	6	0.0
28	CN(c1ccc(C(=O)Nc2cccnc2)cc1)S(=O)(=O)c1ccccc1	-6	0	7	16	2	-0.2
29	O=C(O)COc1ccc(/C=N/O)cc1Br	10	16	10	1	-2	1.0
30	COc1ccc(N2CCN(C(=O)CCNC(=O)c3ccc(Br)cc3)CC2)cc1	2	-9	-14	-14	13	-0.3
31	O=C(COC(=O)Cc1ccc(Br)cc1)NC1CCCCC1	-2	-11	-16	8	2	-0.7
32	CCNC(=S)N1CCN(CCN=CC2=C(O)CC(c3cccs3)CC2=O)CC1 (centres undefined)	-2	-1	0	7	0	-0.2
33	COc1ccc(C2C(C#N)=C(SC)NC3=C2C(=O)CC(C)(C)C3)cc1 (centres undefined)	14	0	-7	-16	2	-0.4
34	Cc1onc(-c2ccccc2)c1C(=O)c1c[nH]c(C(=O)NCCCN2CCOCC2)c1	-4	-2	-6	-13	2	0.2
35	O=C(CN(Cc1ccc(F)cc1)C(=O)c1csnn1)NC1CCCC1	-2	22	-7	-1	1	0.2
36	CC12CCC(=O)C=C1C(O)CC1C2CCC2(C)C1CCC2(O)C(=O)CO (centres undefined)	1	2	.	-4	9	0.2
37	c1nnc(-c2ccc3c(c2)OCO3)o1	5	10	0	-4	1	-1.1
38	CCCCC(=O)NC(=S)Nc1cccc(C(=O)O)c1	-1	-7	-3	3	12	1.4
39	Cn1c(N)c(C(=O)COC(=O)CNS(=O)(=O)c2cccc(Cl)c2)c(=O)n(C)c1=O	-3	-10	5	-4	-6	-0.4
40	CCC(=O)c1cc(F)c(N2CCN(S(=O)(=O)c3ccc(C)cc3)CC2)cc1C	-2	2	6	4	-1	0.4
41	CC(Nc1ccc(Cl)cc1)c1cc(Cl)ccc1O (centres undefined)	-2	-4	-2	-3	-5	1.2
42	COc1ccc(C(=O)N/C(=C\c2ccc3c(c2)OCO3)C(=O)Nc2cccc(C(=O)O)c2)cc1	-54	-14	10	.	2	4.0
43	CCOC(=O)c1nnn(CC(=O)Nc2cc(Cl)ccc2C)c1C(=O)OCC	-9	11	11	-4	7	-0.4
44	COc1ccccc1CNC(=O)/C=C/c1ccc(S(=O)(=O)NCc2ccco2)cc1	22	-3	-1	7	-9	-0.5
45	C/C=C(\C)C(=O)Nc1cccc(C2=NOC3(C2)C[C@H](C(N)=O)N(C(=O)C(c2ccccc2)c2ccccc2)C3)c1 (some centres undefined)	-1	6	?	1	-1	-0.2
46	COC(=O)c1cc(NC(=O)Cc2ccc(OC)cc2)cc(C(=O)OC)c1	-1	9	-8	-1	-9	-0.3
47	Cc1cc(C(=O)COc2ccccc2[N+](=O)[O-])c(C)n1C1CC1	-1	11	-1	2	-16	0.2
48	COc1ccc(N2CCN(C(=O)c3[nH]c(C(F)(F)F)nc3-c3ccccc3)CC2)cc1	-6	.	.	-8	-19	-0.2
49	Nc1cc(C(F)(F)F)ccc1-n1cccc1	1	-2	-8	.	-14	-1.6
50	COc1ccc2oc(=O)c(C(=O)n3ccc(C)n3)cc2c1	1	-19	4	8	8	0.0

Fetched by compound from the list above:
nr	SMILES	D2 potentiator	TRPML1 blocker	TRPV1 potentiator	CtBP-E1A blk	Six1-Eya2 blk	TRPML1 ag
47	Cc1cc(C(=O)COc2ccccc2[N+](=O)[O-])c(C)n1C1CC1	-1	11	-1	2	-16	0.2
29	O=C(O)COc1ccc(/C=N/O)cc1Br	10	16	10	1	-2	1.0

Continuation.
nr	SMILES	D2 potentiator	TRPML1 blocker	TRPV1 potentiator	CtBP-E1A blk	Six1-Eya2 blk	TRPML1 ag
51	O=c1c2ccccc2nc(-c2ccccc2Cl)n1O	-2	-15	-18	8	8	0.1
52	COc1ccc(NS(=O)(=O)c2cccc(C(=O)Nc3cccc(C(=O)O)c3)c2)cc1	-6	3	-4	-12	-19	0.7
53	Cn1c(=O)c(C(=O)CN2CC(=O)Nc3ccccc32)c(N)n(Cc2ccccc2)c1=O	-3	22	6	6	-2	0.8
54	C=C(C)C(=O)N1CC2(CC(c3cccc(NC(=O)CCCCC)c3)=NO2)C[C@H]1C(N)=O (some centres undefined)	-7	-7	-19	-1	1	0.1
55	Cc1ccc(S(=O)(=O)C2CCOC2=O)cc1 (centres undefined)	-15	10	-1	5	4	0.6
56	CN1C(=O)/C(=N\OC(=O)c2cccc3ccccc23)c2ccccc21	-32	-4	14	8	-1	1.9
57	CCOC(=O)N1CCN(C(=O)COc2ccc([N+](=O)[O-])cc2)CC1	-1	-7	5	6	4	1.3
58	Cc1nnc(NC(=O)Nc2cccc(Cl)c2)s1	13	0	4	-9	-1	0.4
59	COc1ccc2cc(C(=O)N3CCN(c4ccc(F)cc4)CC3)[nH]c2c1	-5	18	6	-5	-4	1.7
60	CCCOc1ccc(NC(=O)CC2C(=O)N(C)C(=S)N2Cc2ccc3c(c2)OCO3)cc1 (centres undefined)	-6	-4	-26	11	4	0.3
